High-throughput results deposited in PubChem BioAssay by Fisher Drug Discovery Resource Center.
NPYLR7 ag: agonists of mosquito NPYLR7 receptor, primary screen, cell-based, Aedes aegypti, calcium fluorescence, mosquito biting behavior; 270,000 tested, 0.15% active; Aedes aegypti neuropeptide Y-like receptor 7 (NPYLR7); HEK293T NPYLR7/Galpha15, GCaMP6s calcium fluorescence; AID 1259423, 2018; activation, % at 10 µM; in the data active = activation above about 40%;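 also: 0% = vehicle and 100% = reference agonist at the receptor; some compounds past the cut are filed as inactive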
NPYLR7 ag max-min: further read-out of NPYLR7 ag, marked with its call; activation, %; measured here: Max-Min RFU normalised activation; some inactives read as strong as hits;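 span of the calcium signal over five minutes; 0% = vehicle and 100% = native peptide agonist; compound fluorescence can raise it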
* marks the source's active call; other numbers are inactive results; & = joins results of further samples. An excerpt; count on the stated rates, not on these rows.

Start of the listing, in advance, 2 compounds:
SMILES | NPYLR7 ag | NPYLR7 ag max-min
CC1(C(=O)NS(=O)(=O)Cc2cccc(Cl)c2)CCN1C(=O)c1cccc(F)c1 (configuration not stated) | -2 | -4
O=C(NCc1ccco1)C(C1CCCC1)N1CCN(C(=O)C2CC2)CC1 (configuration not stated) | -4 | 1

This part in full (from the top)
SMILES | NPYLR7 ag | NPYLR7 ag max-min
CC1(C(=O)NS(=O)(=O)Cc2cccc(Cl)c2)CCN1C(=O)c1cccc(F)c1 (configuration not stated) | -2 | -4
O=C(NCc1ccco1)C(C1CCCC1)N1CCN(C(=O)C2CC2)CC1 (configuration not stated) | -4 | 1
CCOC(=O)c1c(NC(=O)c2cccs2)sc(C(=O)Nc2ccc(OC)cc2OC)c1C | -7 | -16
O=C(NCc1cnn2ccccc12)c1ccnc(-n2cnnc2)c1 | 2 | 1
CC(CNC(=O)c1cn(C2CCCCCC2)nn1)Oc1cccnc1 (configuration not stated) | 4 | -2
COc1cccc(COC2CN(CC(C)C)C(=O)CN(C(=O)c3cnsn3)C2)c1 (configuration not stated) | 11 | 2
Cc1ccnc(SCc2cc(=O)c(OC(=O)c3cccs3)co2)n1 | -5 | 3
CC(C)=CCC/C(C)=C/CNC(=O)NC1CCCCC1 | 3 | 1
NCC1CCN(Cc2cnc(N3CCOCC3)nc2)C1 (configuration not stated) | 6 | 4
CC(C)C1CCCCC1NC(=O)CS(=O)(=O)NCC1CCCO1 (configuration not stated) | -1 | -2
COCCN(Cc1nccn1Cc1ccc(C(F)(F)F)cc1)C(=O)c1ccc(Cl)cc1 | 5 | 14
O=C(O)Cn1c(SCCOc2cccc3ccccc23)nc2ccccc21 | -7 | -12
CC(=O)N(CCN(C)C)Cc1cc(NC(=O)C2CCC2)ccc1N(C)C | 35 | 40
CN(C1CCCCC1)S(=O)(=O)c1ccc(NC(=O)CCl)cc1 | -1 | -5
O=C(O)COc1c(F)c(F)c(Cl)c(F)c1F | 1 | -4
COc1cc(C=C2SC(=S)NC2=O)cc(OC)c1OC | -6 | -12
COc1ccc(C(=O)Nc2c(N)nc(SCc3ccccc3)[nH]c2=O)cc1OC | 7 | 6
COCCNC(C)=CC(=O)C(F)(F)F | -5 | -6
CC(=O)Nc1ccc(-c2cn(Cc3ccc(Cl)cc3)nn2)cc1 | 32 | 19
CCOc1cc(C(=O)N2CCOC(Cc3ccccc3)C2)ccc1OC (configuration not stated) | -4 | -9
COc1ccccc1-c1ccc(N2CCC(C(=O)NC3CCCC3)CC2)nn1 | -8 | -12
CN1C(C)(C)CC(NC(=O)c2ccc3nc(-c4cccc(O)c4)[nH]c3c2)CC1(C)C | 3 | 1
COC1CCN(C(=O)c2cc(Cl)cc(Br)c2O)CC1 | -9 | -8
COc1ccc(CNC(=O)c2csc(COC(=O)c3ccccc3)n2)cc1 | -1 | -6
COCCC1(CNC(=O)Nc2cc(C(C)C)on2)CCC1 | 5 | 3

(cont.)
SMILES | NPYLR7 ag | NPYLR7 ag max-min
CC1CCN(C(=O)CSc2ccc(NC(=O)c3ccccc3)nn2)CC1 | 1 | 2
CN(c1ccccc1)N1CC(C(=O)N2CCCC3CCCCC32)CC1=O (configuration not stated) | -1 | -6
O=C(OCC(=O)C1CCCCC1)c1cc(S(=O)(=O)N2CCCCC2)ccc1N1CCOCC1 | -2 | -2
COc1cc(C#N)ccc1OC(C)c1nc(C)no1 (configuration not stated) | -1 | -1
O=C(c1occc1Br)N1CCSC2COCCC21 (configuration not stated) | 0 | -1
CCCCCn1c(=O)[nH]c2c(c1=O)CCC2 | 4 | 10
CN(C)C(CNS(=O)(=O)c1cnc2c(c1)c(=O)[nH]c(=O)n2C)c1ccccc1Cl (configuration not stated) | 5 | 4
Cc1ccc(C(=O)Nc2ccc(C3SCC(=O)N3c3ccccc3)cc2)cc1[N+](=O)[O-] (configuration not stated) | 6 | 16
CNC(=O)[C@@]1(OCc2cccc(C(F)(F)F)c2)CC(OCc2ccc(C#N)cc2)[C@H](O)[C@H](O)C1 (some centres not stated) | 3 | 14
Cc1occc1C(=O)NCCS(=O)(=O)c1ccc(Cl)cc1 | 0 | -1
COc1ccc(-c2nc(CN3CCC(OCc4cccnc4)CC3)c(C)o2)cc1C | 3 | -2
Cc1ncc2c(c1-c1noc([C@]34CC[C@](C)([C@@H](O)C3)C4(C)C)n1)CCNC2 | 8 | 5
Cc1ccccc1N=C1NN=C(c2ccccc2F)CS1 | -2 | -4
O=C(O)c1nn(CC(=O)N2CCc3sccc3C2)c(=O)c2ccccc12 | 15 | 4
O=C(Cn1ccc(C(F)(F)F)n1)Nc1nccs1 | 7 | 12
O=[N+]([O-])c1nn(-c2ccccc2)n(O)c1=NC1CCCC1 | -15 | -24
Cc1cc(C)c(NC(=O)N2CCN(C(=O)OC(C)(C)C)CC2)c(C)c1 | 0 | -3
CCOC(=O)c1nn(Cc2ccc(OC)cc2)c2c1CN(C(=O)CCn1nc(C)cc1C)CC2 | 13 | 3
COc1cc(C)c(S(=O)CCN2C(=O)NC(C)(C)C2=O)cc1OC (configuration not stated) | -1 | 0
COc1ccc(-c2cc(CNC(=O)C3CC3)no2)cc1 | 1 | 0
COc1cc(=O)n(-c2ccc(F)cc2)nc1C(=O)Nc1ccccc1O | -8 | -8
CCC(C)C(NC(=O)Nc1c(C(C)C)cccc1C(C)C)C(=O)Nc1nnc(-c2cccc(Br)c2)s1 (configuration not stated) | 17 | 12
COc1ccc(N=Cc2c(O)cc(C)oc2=O)c(OC)c1 | 10 | 15
Cc1cccc(NC(=O)c2c([N+](=O)[O-])cnn2C)c1 | -6 | -9
COC1CCN(C(=O)NCC(C)c2ccc(F)c(F)c2)CC1 (configuration not stated) | 14 | 11

Reformatted with each value named: four of the compounds above
> O=C(OCC(=O)C1CCCCC1)c1cc(S(=O)(=O)N2CCCCC2)ccc1N1CCOCC1
  NPYLR7 ag: -2 | NPYLR7 ag max-min: -2

> COc1cc(C#N)ccc1OC(C)c1nc(C)no1 (configuration not stated)
  NPYLR7 ag: -1 | NPYLR7 ag max-min: -1

> O=C(c1occc1Br)N1CCSC2COCCC21 (configuration not stated)
  NPYLR7 ag: 0 | NPYLR7 ag max-min: -1

> CCCCCn1c(=O)[nH]c2c(c1=O)CCC2
  NPYLR7 ag: 4 | NPYLR7 ag max-min: 10

Next records follow.
SMILES | NPYLR7 ag | NPYLR7 ag max-min
CCCc1nc(N2CCN(Cc3ccc(C(F)(F)F)cc3)CC2)c2cnn(-c3ccccc3)c2n1 | 9 | 10
O=C(NC1CCCCC1)c1cc2c(nc1Cl)CCC2 | -6 | -13
CC(=O)c1cccc(OCC(=O)N2CCc3cc(F)cc(F)c32)c1 | -1 | -2
COC(=O)c1cc(C(C)C)nc2c1c(C)nn2C1CCS(=O)(=O)C1 (configuration not stated) | 5 | 4
CCCCN(CC(=O)N1c2ccccc2-n2cccc2C1c1cccc(C)c1)C(=O)Nc1ccccc1C(F)(F)F (configuration not stated) | -3 | 7
CCOC(=O)Cc1c(C)nc2ncnn2c1N1CCN(C(=O)c2ccc3ccccc3n2)CC1 | 28 | 16
CCN(CC)c1ccc2cc(C(=O)Nc3ccccc3F)c(=N)oc2c1 | -3 | -8
CC1CN(S(=O)(=O)c2cc(C(=O)Nc3ccc4c(c3)CCC4)ccc2Cl)CC(C)O1 (configuration not stated) | -6 | -4
COC(=O)c1ccc(N2CCOC(Cc3cccc(OC)c3)C2)nc1 (configuration not stated) | 18 | 1
CC(C)(C)OC(=O)NCc1ccc(C(=O)Nc2cccc(S(C)(=O)=O)c2)cc1 | 12 | 6
CCOC(=O)c1nc2cc(Cl)c(Cl)cc2nc1N1CCCN(C(=O)c2ccco2)CC1 | 4 | 5
Cc1noc2c1C(=O)CC(C)(C)C2 | -1 | 1
O=C(O)c1cccc(-c2cc(N3CCCC3CO)n3nccc3n2)c1 (configuration not stated) | -5 | -10
Cn1cnc(S(=O)(=O)N2CCC(Cc3cccc(C(=O)O)c3)C2)c1 (configuration not stated) | 0 | -7
CCOc1ccc(C(=O)Nc2cccc(-c3nc4ccc(C)cc4o3)c2)cc1Br | 12 | 11
O=C(C=Cc1ccccc1)Nc1nc2c(s1)CCCC2 | 8 | 6
CN(C(=O)NCC1CCCc2ccccc21)C1CCS(=O)(=O)C1 (configuration not stated) | 2 | 0
Cc1ccc(C(=O)Nc2cc(N3CCNC3=O)ccc2Cl)s1 | 4 | 2
Cc1cc2c(cc3c(=O)n(CC(=O)NC4CCCC4)ncn32)s1 | 3 | 3
CCOC(=O)c1c(NC(=O)c2cc(C)n(C(C)(C)C)n2)c(-c2cccc(F)c2)cn1C | -1 | -2
O=[N+]([O-])c1ccc(C2SCCN2S(=O)(=O)c2ccc(Br)cc2)cc1 (configuration not stated) | 4 | -1
COC(=O)CC1(c2ccccc2)C2CC3CC(C2)CC1C3 (configuration not stated) | 3 | -3
CC(=O)N1CCN(c2ccc([N+](=O)[O-])cc2F)CC1 | 8 | 14
CC(=O)NCCCc1n[nH]c(Cc2ccccc2)n1 | -1 | 3
CCCN(Cc1c(CC)nn(-c2ccc(F)cc2)c1N1CCN(C(C)C)CC1)S(=O)(=O)c1ccc(Cl)cc1 | -10 | 6

Remaining list, next part.
SMILES | NPYLR7 ag | NPYLR7 ag max-min
CN(CC#Cc1ccc(Cl)cc1)CC(=O)N1CCC(O)CC1 | 5 | 5
CC1(C(=O)O)CCN1C(=O)Cc1ccc(Cl)cc1Cl (configuration not stated) | 1 | 1
COc1ccc(OC)c(C2c3cccn3CCN2C(=O)Nc2ccccc2)c1 (configuration not stated) | 8 | 3
CCCN1C(=O)C(c2c(C(C)C)[nH]n(-c3ccc(Cl)c(Cl)c3)c2=O)=C([n+]2cccc(C)c2)C1=O | 6 | 10
Cc1nc(Nc2nc(CSc3ccc(Cl)cc3)cc(=O)[nH]2)nc2ccccc12 | -8 | -15
CCCS(=O)(=O)Nc1ccc(N(C)C)c(CN(Cc2ccc(F)cc2)S(=O)(=O)c2ccc(F)cc2)c1 | 0 | 11
CC(C)CCn1c(=S)[nH]c2sc3c(c2c1=O)CCCC3 | 8 | 4
Cc1ccc(C)c2sc(N(CCCn3ccnc3)C(=O)Cc3ccc(F)cc3)nc12 | -9 | -14
C=C(C)Cc1c(C)c(C#N)c2nc3ccccc3n2c1NCCN(C)C | -1 | -1
O=S(=O)(c1ccc2ccccc2c1)n1c(SCC#CCO)nc2ccccc21 | -8 | -6
CCn1c(SCC(=O)NCCOc2ccccc2)nnc1-c1ccco1 | 10 | 2
Cc1ccc(C2(CN3CCCN(c4ccncc4)CC3)CCNCC2)nc1 | 21 | 7
CN1CCCC2(CCN(C(=O)Cc3cn(C)c4ccccc34)C2)C1=O (configuration not stated) | 2 | -2
CCOC(=O)N1CCC(NC(=O)c2cc3nc(-c4cccs4)cc(C(F)(F)F)n3n2)CC1 | 2 | 1
C=CCSc1nc2c(c(=O)[nH]1)C(c1ccc(F)cc1)C(C(=O)OCC)=C(C)N2 (configuration not stated) | -4 | -9
Cc1nc(CCC(=O)N2CCCC3(C=Cc4ccccc4O3)CC2)n[nH]1 (configuration not stated) | 5 | -5
C=CCSc1nnc(-c2ccc(OC)cc2)n1-c1ccccc1C | 17 | 22
COc1ccc2cccc(NC(=O)c3csc(C)n3)c2n1 | -1 | -4
COC(=O)C1CCCCc2sc(NC(C)=O)nc21 (configuration not stated) | 17 | 10
O=S(=O)(c1ccc(F)cc1F)N1CCC(n2nc(-c3ccccc3)cc2-c2ccccc2)CC1 | 19 | 12
COc1cc(C2CC(c3ccc(Cl)cc3)=Nc3ncnn32)cc(OC)c1OC (configuration not stated) | 10 | 4
NC(=O)C1CCN(CCOc2c(Cl)cccc2Cl)CC1 | 2 | 1
CC(=O)OCC[N+](C)(C)C | 30&21&27 | 16&36&14
N#Cc1ccc(S(=O)(=O)N2CCC(Cc3ccc(F)cc3)CC2)cc1 | 1 | 4
CC1(C(=O)NS(=O)(=O)Cc2cccc(Cl)c2)CCN1C(=O)c1ccc(C2CCCCC2)cc1 (configuration not stated) | 0 | 0

Reformatted in markdown: 3 of the compounds above
| SMILES | NPYLR7 ag | NPYLR7 ag max-min |
| --- | --- | --- |
| CCOC(=O)N1CCC(NC(=O)c2cc3nc(-c4cccs4)cc(C(F)(F)F)n3n2)CC1 | 2 | 1 |
| C=CCSc1nc2c(c(=O)[nH]1)C(c1ccc(F)cc1)C(C(=O)OCC)=C(C)N2 (configuration not stated) | -4 | -9 |
| Cc1nc(CCC(=O)N2CCCC3(C=Cc4ccccc4O3)CC2)n[nH]1 (configuration not stated) | 5 | -5 |

(listing goes on)
SMILES | NPYLR7 ag | NPYLR7 ag max-min
CCCOC(=O)c1c(NC(=O)c2ccc(Br)o2)sc(C)c1-c1ccc(OC)cc1 | -2 | -5
Cc1cc(C(=O)N2CCC(c3ccc(F)cc3)CC2)nn1C | -5 | -11
Cc1noc(C)c1C(=O)N1CCC(CO)(Cc2ccccc2)CC1 | 2 | 7
Cc1ccc2nc(SCC(=O)N3Cc4cnn(CCO)c4C3)[nH]c2c1 | 2 | 1
CN(C)CCCOc1ccc(-c2nnc3ccc(-c4cccc(C(=O)N(C)C)c4)cn23)cc1 | 5 | 0
COCCN(Cc1c(-c2ccccc2)noc1N(C)C1CCCCC1)C(=O)c1ccc2c(c1)OCO2 | 8 | 12
CO[C@H]1[C@H](NC(=O)c2ccccn2)c2ccccc2C12CCN(C(=O)[C@@H]1C[C@@H]3C=C[C@H]1C3)CC2 | 6 | 6
CNc1nc2c(C)cccn2c(=O)c1C=Nc1ccc(C)cc1 | -1 | -1
CC1(C)C2CCC1(C)C(N1CC(=O)C(c3nc4ccccc4s3)C1=N)C2 (configuration not stated) | 4 | 2
Cc1cc(C)cc(S(=O)(=O)N2CCN(c3ccc4nncn4n3)CC2)c1 | 1 | 5
Cc1ccn2c(=O)c(NC(=O)C3CCCC3)c(C)nc2c1 | 3 | 0
Cn1c(=O)c2c(ncn2CC(=O)N2CCCC2)n(C)c1=O | 6 | -1
Cn1cc(C(=O)NCc2csc3ccc(Cl)cc23)ccc1=O | 3 | 20
CN(C)CC(CNC(=O)Nc1ccccc1)C(O)c1ccccc1 (configuration not stated) | 14 | 9
